# Hedgehog inh = Sonic Hedgehog pathway inhibition. Shh-LIGHT2 Gli-luciferase reporter, 30 h. inhibition, % (test concentration not listed). actives 2.1% (n = 22,000). AID 2313;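 active = replicate mean of 65% or more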;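 note: pathway switched on by Shh-conditioned medium diluted 1 in 25 in low serum; 100 nL library stock added to about 40 µL; 0% = median of neutral wells and 100% = positive control level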
# PD-1 reverse act = activators reversing PD-1 mediated T-cell inhibition. primary human CD4 T cells, PD-L1 beads, CellTiter-Glo 96 h. activation, % (test concentration not listed). 29,000 tested, under 10 active. AID 2316;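 active = replicate mean of 50% or more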;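 note: 0% = median vehicle wells and 100% = positive control; 100 nL library stock added to about 50 µL; numbers are from one replicate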
# MITF inhib = MITF inhibition. TRPM1 promoter luciferase, luminescence, 24 h. inhibition, % (no concentration beside the values). actives 0.28% (n = 37,000). AID 2240;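 active = most replicates at 85% or more, or half of them and the mean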;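 note: human melanocyte line stably carrying TRPM1 promoter luciferase reporter; 0% = vehicle wells and 100% = a positive control; the first replicate is given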
# YB-1 expression = YB-1 expression inhibition | U2OS, qRT-PCR YB-1 vs CDIP delta delta Cp, 16 h; hits give high values; zero = DMSO, each unit about twofold | delta delta Cp (YB-1 minus CDIP) (no concentration beside the values) | actives 0.37% (n = 30,000);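 active = delta delta Cp rounded down to an integer at or above 3, about 3 SD of DMSO wells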;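 note: higher means less YB-1 transcript or more CDIP transcript relative to DMSO; stock transfer was 100 nL into about 100 µL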
# Numbers without * were called inactive; nt = not tested or not shown.
SMILES,Hedgehog inh,PD-1 reverse act,MITF inhib,YB-1 expression
C[C@H]1CN([C@@H](C)CO)C(=O)Cc2cc(NC(=O)Nc3cccc4ccccc34)ccc2O[C@@H]1CN(C)Cc1ccncc1,9,2.7,-5,-0.24
Cc1ccc(NC(=O)CSc2nnc(N)s2)cc1,nt,1.6,-9,nt
O=C(O)CCC(=O)N(Cc1ccccc1)Cc1cn(-c2ccccc2)nc1-c1cccnc1,-8,0.9,13,-0.54
N#Cc1cc2c(N)c(C(=O)Nc3ccccc3)sc2nc1N,nt,-2.8,-14,0.42
COc1ccc(NC(=O)CSc2nc3c(c(-c4cccs4)c2C#N)CN(C)CC3)cc1OC,nt,0.0,-6,nt
C[C@H]1CN([C@@H](C)CO)C(=O)c2cc(NC(=O)C3CC3)ccc2O[C@H]1CN(C)Cc1ccc(Oc2ccccc2)cc1,nt,1.8,9,-0.28
C[C@H]1CN([C@@H](C)CO)C(=O)c2cccc(NS(=O)(=O)c3ccccc3)c2O[C@@H]1CN(C)C(=O)NC1CCCCC1,-33,1.3,-5,0.14
N#Cc1c(SCC(=O)Nc2ccccc2)ncc2cc3ccccc3nc12,nt,-11,55,nt
C[C@H](CO)N1C[C@H](C)[C@H](CN(C)Cc2ccccc2)Oc2c(NC(=O)NC3CCCCC3)cccc2C1=O,-26,1.4,13,1.5
COc1cccc(CNc2ccc3c(c2)ncn3-c2ccccc2)c1OC,nt,-1.7,28,nt
COc1ccc(S(=O)(=O)N(C)C[C@@H]2Oc3c(NC(=O)C4CCCCC4)cccc3C(=O)N([C@@H](C)CO)C[C@@H]2C)cc1,56,2.1,14,0.54
COc1ccc2c(c1)C(C)(CC#N)C(=O)N2C (stereo not given),-21,0.1,-2,0.14
C[C@H]1CN([C@@H](C)CO)C(=O)c2cc(NS(C)(=O)=O)ccc2O[C@H]1CN(C)Cc1ccc(Cl)c(Cl)c1,nt,-1.0,-9,0.072
C[C@@H]1CN([C@H](C)CO)C(=O)c2cc(NC(=O)C3CC3)ccc2O[C@@H]1CN(C)Cc1ccc(C(F)(F)F)cc1,nt,2.0,-6,-0.44
CC(=O)/C=C\[C@@H]1[C@@]2(C)CCCC(C)(C)C2CC[C@@]1(C)O (stereo not given in full),-33,nt,-15,0.33
N#Cc1ccccc1NC(=O)CCSc1nc(-c2ccccc2)c2cc(Cl)ccc2n1,nt,-0.5,24,nt
Cn1c(=O)c2c(ncn2CC(=O)Nc2ccccc2Sc2ccccc2)n(C)c1=O,nt,0.4,21,nt
C[C@@H]1CN([C@H](C)CO)C(=O)c2cccc(NC(=O)c3ccc(-c4nccs4)cc3)c2O[C@H]1CN(C)CC1CC1,-17,-5.9,28,-0.39
COc1ccc(S(=O)(=O)N(C)C[C@H]2Oc3c(NC(=O)c4ccncc4)cccc3C(=O)N([C@H](C)CO)C[C@@H]2C)cc1,8,-2.5,-9,0.014
C[C@@H]1CN([C@H](C)CO)C(=O)c2cc(NC(=O)Nc3ccc(C(F)(F)F)cc3)ccc2O[C@H]1CN(C)C(=O)Nc1ccccc1,nt,-12,3,0.12
C[C@H]1CN([C@@H](C)CO)C(=O)Cc2cc(NC(=O)Nc3cccc4ccccc34)ccc2O[C@@H]1CN(C)Cc1ccc(C(=O)Nc2ccccc2N)cc1,nt,-1.3,5,-0.34
C[C@@H]1CN([C@H](C)CO)C(=O)c2cc(NC(=O)Nc3cccc4ccccc34)ccc2O[C@@H]1CN(C)C(=O)Nc1cccc2ccccc12,-12,-1.5,8,-0.13
Cc1ccc(OCC(=O)NC(=S)Nc2cc(-c3nc4ncccc4o3)ccc2Cl)cc1,nt,0.4,31,nt
Fc1ccccc1OCCSc1nc2ccccc2s1,-88,0.0,-3,1.8
COc1ccc(S(=O)(=O)N(C)C[C@H]2Oc3ccc(NC(=O)Nc4c(C)noc4C)cc3C(=O)N([C@@H](C)CO)C[C@@H]2C)cc1,15,0.4,-4,0.047
O=C(CN(C1CCCCC1)S(=O)(=O)c1ccc(Cl)cc1)Nc1ccccc1C(F)(F)F,nt,0.5,34,nt
CS(=O)(=O)N(CC(=O)Nc1ccc(F)cc1)c1ccc(Cl)c(Cl)c1,nt,-2.4,-3,nt
CCC(NC(C)C)C(O)c1ccc(O)c(O)c1 (stereo not given),1,nt,-1,0.45
C[C@H](CO)N1C[C@H](C)[C@@H](CN(C)S(=O)(=O)c2ccccc2)Oc2c(NC(=O)Nc3ccc(F)cc3)cccc2C1=O,36,nt,-8,-0.15
Cc1cc(=O)[nH]c(SCC(=O)Nc2cccc3ccccc23)n1,nt,-1.1,6,nt
CCn1c(=NC(=O)c2ccc(S(=O)(=O)N3CCCC3)cc2)sc2c3ccccc3ccc21,-12,8.1,-11,0.53
CC(=O)c1cccc(NC(=O)CN(c2ccc(Br)c(C)c2)S(C)(=O)=O)c1,nt,-1.8,-7,nt
Cc1noc(C)c1S(=O)(=O)Nc1ccc2c(c1)C(=O)N([C@@H](C)CO)C[C@@H](C)[C@H](CN(C)S(=O)(=O)c1ccc(F)cc1)O2,-33,nt,7,0.0043
C[C@H]1CN([C@@H](C)CO)C(=O)c2cccc(NS(C)(=O)=O)c2O[C@@H]1CN(C)Cc1ccc(C(=O)Nc2ccccc2N)cc1,nt,-0.5,3,-0.27
COc1ccc(NC(=O)Nc2ccc3c(c2)C(=O)N([C@H](C)CO)C[C@H](C)[C@@H](CN(C)S(=O)(=O)c2ccc(OC)cc2)O3)cc1,nt,0.9,-30,0.42
C[C@H](CO)N1C[C@H](C)[C@@H](CN(C)S(=O)(=O)c2ccc(Cl)cc2)Oc2c(NC(=O)CCCCCC(=O)Nc3ccccc3N)cccc2C1=O,nt,-0.4,16,-0.41

# Arranged by number of heavy atoms (ascending): part of the list above
SMILES,Hedgehog inh,PD-1 reverse act,MITF inhib,YB-1 expression
CS(=O)(=O)N(CC(=O)Nc1ccc(F)cc1)c1ccc(Cl)c(Cl)c1,nt,-2.4,-3,nt
C[C@H](CO)N1C[C@H](C)[C@@H](CN(C)S(=O)(=O)c2ccccc2)Oc2c(NC(=O)Nc3ccc(F)cc3)cccc2C1=O,36,nt,-8,-0.15
COc1ccc(NC(=O)Nc2ccc3c(c2)C(=O)N([C@H](C)CO)C[C@H](C)[C@@H](CN(C)S(=O)(=O)c2ccc(OC)cc2)O3)cc1,nt,0.9,-30,0.42
C[C@H](CO)N1C[C@H](C)[C@@H](CN(C)S(=O)(=O)c2ccc(Cl)cc2)Oc2c(NC(=O)CCCCCC(=O)Nc3ccccc3N)cccc2C1=O,nt,-0.4,16,-0.41

# Given with tabs: entries from further up
SMILES	Hedgehog inh	PD-1 reverse act	MITF inhib	YB-1 expression
CCC(NC(C)C)C(O)c1ccc(O)c(O)c1 (stereo not given)	1	nt	-1	0.45
C[C@H](CO)N1C[C@H](C)[C@@H](CN(C)S(=O)(=O)c2ccccc2)Oc2c(NC(=O)Nc3ccc(F)cc3)cccc2C1=O	36	nt	-8	-0.15

# Carrying on:
SMILES,Hedgehog inh,PD-1 reverse act,MITF inhib,YB-1 expression
CC(=O)Nc1cccc(-c2nnc(SCC(=O)N3CCN(c4ccccc4)CC3)n2C)c1,nt,1.7,1,nt
COc1ccc(S(=O)(=O)N(C)C[C@@H]2Oc3ccc(NS(=O)(=O)c4ccc(F)cc4)cc3C(=O)N([C@H](C)CO)C[C@H]2C)cc1,nt,1.7,-3,-0.053
C[C@@H]1CN([C@H](C)CO)C(=O)c2cccc(NC(=O)Nc3ccc(F)cc3)c2O[C@H]1CN(C)Cc1ccc(C(F)(F)F)cc1,22,-4.7,38,0.13
C[C@H]1CN([C@@H](C)CO)C(=O)c2cc(NS(=O)(=O)c3cn(C)cn3)ccc2O[C@@H]1CN(C)C(=O)Nc1ccc(F)cc1,-2,0.8,-4,-0.15
CC(=O)O[C@@H]1[C@@H](OC(=O)/C=C/c2ccccc2)[C@H](C)O[C@@H](O[C@H]2[C@@H]3C=CO[C@@H](O[C@@H]4O[C@H](CO)[C@@H](O)[C@H](O)[C@H]4O)[C@@H]3[C@@]3(CO)O[C@@H]23)[C@@H]1OC(C)=O,-17,0.7,3,-0.061
C[C@@H]1CN([C@H](C)CO)C(=O)c2cccc(NC(=O)NC3CCCCC3)c2O[C@@H]1CN(C)Cc1ccc(C(=O)O)cc1,-23,4.6,-3,-0.043
C[C@@H]1CN([C@H](C)CO)C(=O)Cc2cc(NC(=O)C3CCCCC3)ccc2O[C@H]1CN(C)Cc1ccc(Oc2ccccc2)cc1,35,nt,53,0.1
Cc1noc(C)c1NC(=O)Nc1cccc2c1O[C@@H](CN(C)Cc1ccncc1)[C@H](C)CN([C@@H](C)CO)C2=O,-5,1.1,-4,0.076
C[C@@H]1CN([C@@H](C)CO)C(=O)Cc2cc(NC(=O)CCN3CCOCC3)ccc2O[C@@H]1CN(C)Cc1ccc(-c2ccccc2)cc1,nt,-1.2,-25,-0.13
CC(C)NC(=O)N(C)C[C@H]1Oc2c(NC(=O)CCCCCC(=O)Nc3ccccc3N)cccc2C(=O)N([C@@H](C)CO)C[C@H]1C,nt,0.0,-3,-0.35
COC(=O)c1ccc(CSc2nnc(CN3CCOCC3)n2C)cc1,nt,0.3,-27,nt
C[C@@H]1CN([C@H](C)CO)C(=O)c2cc(NC(=O)Nc3ccccc3)ccc2O[C@@H]1CN(C)Cc1ccc(C(F)(F)F)cc1,nt,0.6,22,0.11
C[C@@H]1CN([C@H](C)CO)C(=O)c2cc(NS(=O)(=O)c3ccccc3)ccc2O[C@H]1CN(C)S(=O)(=O)c1cccs1,nt,2.5,-1,0.37
COc1ccc(NC(=O)Nc2ccc3c(c2)CC(=O)N([C@@H](C)CO)C[C@H](C)[C@H](CN(C)C(=O)Nc2ccc(F)cc2)O3)cc1,-3,1.2,18,-0.21
COC(=O)c1sccc1NC(=O)Cn1cnc2c1c(=O)n(C)c(=O)n2C,nt,0.6,10,nt
CNC[C@@H]1Oc2c(NC(=O)c3cc(C)nn3C)cccc2C(=O)N([C@@H](C)CO)C[C@@H]1C,-18,1.7,-4,-0.28
COc1ccc(CCNc2nc(-c3ccncc3)cs2)cc1OC,nt,-0.7,-2,nt
Cn1c(SCC(=O)Nc2ccc(F)c(Cl)c2)nnc1-c1ccccc1Cl,nt,-0.8,56,nt
Cc1nnc(SCC(=O)Nc2cc(Cl)ccc2Cl)s1,nt,-3.4,-20,nt
C[C@H]1CN([C@@H](C)CO)C(=O)c2cc(NS(=O)(=O)c3ccc(F)cc3)ccc2O[C@H]1CN(C)C(=O)Nc1cccc2ccccc12,3,-0.4,5,-0.28
CC(=O)c1ccc(NC(=O)c2ccc(CSc3nc4ccc([N+](=O)[O-])cc4s3)cc2)cc1,nt,1.4,-2,nt
C[C@@H]1CN([C@@H](C)CO)C(=O)c2cc(NS(=O)(=O)c3cn(C)cn3)ccc2O[C@@H]1CN(C)S(=O)(=O)c1ccc(F)cc1,-17,2.1,1,0.28
C[C@H](CO)N1C[C@H](C)[C@@H](CN(C)Cc2ccccc2)Oc2c(NS(=O)(=O)c3ccc(Cl)cc3)cccc2C1=O,39,-0.4,-1,-0.87
CCOc1cccc2cc(C(=O)NCc3cccnc3)c(=O)oc12,nt,-1.0,23,nt
C[C@H](CO)N1C[C@H](C)[C@H](CN(C)S(=O)(=O)c2ccc(F)cc2)Oc2c(NS(=O)(=O)c3ccc(Cl)cc3)cccc2C1=O,37,-0.9,19,-0.22
COc1cc(CCC(O)CC(=O)CCc2ccccc2)ccc1O (stereo not given),15,nt,nt,1.5
C[C@@H]1CN([C@@H](C)CO)C(=O)c2cc(NC(=O)CCCN(C)C)ccc2O[C@@H]1CN(C)Cc1ccc(Cl)c(Cl)c1,7,1.8,-7,-0.64
C[C@H](CO)N1C[C@H](C)[C@@H](CN(C)C(=O)Nc2ccc(C(F)(F)F)cc2)Oc2c(NC(=O)C3CCCCC3)cccc2C1=O,-18,0.5,-9,0.067
C[C@@H]1CN([C@H](C)CO)C(=O)c2cc(NS(=O)(=O)c3ccc(F)cc3)ccc2O[C@@H]1CN(C)Cc1ccccc1,6,-0.1,2,-0.3
C[C@@H]1CN([C@@H](C)CO)C(=O)c2cc(NS(=O)(=O)c3ccc(Cl)cc3)ccc2O[C@@H]1CN(C)Cc1ccc(C(=O)Nc2ccccc2N)cc1,nt,-2.6,21,0.079
COc1ccc(N(C(=O)c2ccccc2)S(=O)(=O)c2cccc([N+](=O)[O-])c2)cc1,nt,-0.8,28,nt
C[C@@H]1CN([C@@H](C)CO)C(=O)c2cc(NS(=O)(=O)c3ccc(F)cc3)ccc2O[C@H]1CN(C)Cc1ccc(Oc2ccccc2)cc1,nt,-1.6,27,0.16
C[C@H](CO)N1C[C@H](C)[C@@H](CN(C)CC2CCCCC2)Oc2c(NC(=O)C3CCOCC3)cccc2C1=O,-59,-1.1,3,0.34
CNC[C@@H]1OCCCC[C@@H](C)Oc2ccc(NS(C)(=O)=O)cc2C(=O)N([C@H](C)CO)C[C@@H]1C,-47,-0.5,-11,-0.25
C[C@@H]1CN([C@@H](C)CO)C(=O)Cc2cc(NC(=O)Nc3ccc(F)cc3)ccc2O[C@@H]1CN(C)C(=O)Nc1ccccc1,-19,-0.8,-9,0.21
COc1ccccc1CC(=O)Nc1cc(Cl)ccc1O,nt,-6.7,2,nt
C[C@@H]1CN([C@H](C)CO)C(=O)Cc2cc(NC(=O)Cc3ccccc3)ccc2O[C@@H]1CN(C)C(=O)Nc1cccc2ccccc12,-18,-0.9,12,0.19
Cc1ccccc1-c1nnc(SCC(=O)Nc2ccc(Oc3ccccc3)cc2)n1C,nt,2.3,23,nt

# Source: PubChem BioAssay

# The list is partial; the hit share may differ from the screen's.
